# Assay outcomes: PubChem BioAssay, several laboratories
# LANA-H2B inh – blockers of LANA interaction with H2A/H2B – biochemical, FP readout, HTS, primary screen; Protein LANA1 (Human herpesvirus 8 type P (isolate GK18)), Q9QR71; cell-free LANA-H2A/H2B peptide, fluorescence polarization; inhibition, % (concentration not given with the values); 320,000 compounds, 0.6% hits; AID 2629, 2010; in the data active = inhibition mostly above about 10%, no sharp cut-off; inactive = mostly below about 6.7%;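 also: stock transfer was 7.5 nL into about 10 µL; 0% = median of vehicle wells and 100% = median of positive control wells; one replicate is shown; the record names a cut of 25% in any replicate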
# T cruzi repl – inhibitors of intracellular T. cruzi growth, primary screen, luminescence, NIH3T3 host cells | T. cruzi beta-gal in NIH3T3, 90 h | inhibition, % (no concentration beside the values) | 300,000 compounds, 1.4% hits;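 active = mean inhibition across valid replicates above about 55%, limit read from the data; inconclusive = mean below that limit but half or more replicates reach it; inactive = mean below it, under half of replicates reach it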;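 also: signal also drops with host cell toxicity which is not excluded here; 0% = plate median of DMSO wells and 100% = zero luminescence signal; higher percent means less beta-gal luminescence so fewer parasites; stock transfer was 50 nL into about 50 µL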
# RanGTP-Imp inh – inhibitors of RanGTP-importin-beta interaction, primary screen, biochemical, FRET, CFP-Ran, YFP-importin-beta, homogeneous | Ran GTPase (GTP-bound) - importin-beta complex | cell-free CFP-Ran/YFP-importin-beta FRET ratio | inhibition, % (concentration not given with the values) | 300,000 compounds, 1.1% hits;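 active = most replicates above 15%; inconclusive = exactly half above 15%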;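 also: 0% = DMSO wells and 100% = Ran loaded with GDP instead of GTP; wells of about 40 µL received 100 nL stock; the first replicate is given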
# AF4-AF9 inh – inhibitors of AF4 peptide binding to AF9, primary screen, biochemical, AlphaScreen, biotin-AF4 peptide, FLAG-AF9, single point | AID 651704, 2012 | inhibition, % at 10 µM | 350,000 compounds, 0.47% hits | Protein AF-9 (Homo sapiens), P42568;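 active = every replicate reaching a set inhibition limit, whatever the replicate mean, cut at about 25% in these data; inconclusive = mean inhibition reaches that limit but some replicates miss it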;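 also: 0% = plate neutral control median and 100% = total signal loss; the record names both 10 and 1 µM as test concentration; the first replicate is given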
# Target sequence (P42568 whole entry, looked up): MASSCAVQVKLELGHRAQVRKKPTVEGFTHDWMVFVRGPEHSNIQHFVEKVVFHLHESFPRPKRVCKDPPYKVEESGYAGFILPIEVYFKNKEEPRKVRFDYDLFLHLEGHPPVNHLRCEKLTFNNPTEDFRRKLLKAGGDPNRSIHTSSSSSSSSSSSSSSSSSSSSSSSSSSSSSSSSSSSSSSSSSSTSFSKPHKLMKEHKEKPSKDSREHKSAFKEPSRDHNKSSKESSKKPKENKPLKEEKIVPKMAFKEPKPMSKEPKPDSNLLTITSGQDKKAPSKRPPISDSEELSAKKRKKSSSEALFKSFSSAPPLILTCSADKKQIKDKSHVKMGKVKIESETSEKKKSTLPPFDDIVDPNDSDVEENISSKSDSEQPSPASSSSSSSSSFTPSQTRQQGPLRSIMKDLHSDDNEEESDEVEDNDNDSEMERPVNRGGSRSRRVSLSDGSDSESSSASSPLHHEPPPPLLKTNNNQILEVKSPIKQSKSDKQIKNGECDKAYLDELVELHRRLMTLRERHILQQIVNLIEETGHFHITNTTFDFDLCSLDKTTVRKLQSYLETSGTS
# Beta cell apopt – inhibitors of cytokine-induced beta cell apoptosis, primary screen, luminescence; INS-1E cytokine-induced death, ATP luminescence, 48 h; percent of positive-control rescue, neutral wells zero; protection from apoptosis, % (test concentration not listed); 300,000 compounds, 0.8% hits; AID 435005, 2010;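 active = all replicates at 75% or more, or half of them and the mean; inconclusive = half reach 75% but not the mean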;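 also: 0% = cytokine-treated negative control wells and 100% = positive control rescue; higher means more ATP so stronger rescue from cytokine killing; wells of about 40 µL received 100 nL stock; the first replicate is given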
# Vif TR-FRET – inhibitors of Vif binding to APOBEC3G peptide, primary screen, biochemical, TR-FRET, GST-Vif 1-94, biotin-A3G peptide, dose response retest (AID 1117319). Virion infectivity factor (Human immunodeficiency virus type 1 group M subtype B (isolate …. TR-FRET GST-Vif / biotin-A3G peptide binding; higher % means a stronger effect; test concentration not given here; strong numbers were not always called active. inhibition, %, or IC50 in µM where a hit was titrated. 260,000 compounds, 0.57% hits;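 active = above the screen mean plus three standard deviations and confirmed in dose response; inconclusive = results disagree or hit not tested in dose response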;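 also: Vif residues 1-94 fused to GST binding biotinylated APOBEC3G peptide 110-148; 0% = full assay without inhibitor and 100% = GST in place of GST-Vif; retest series ran down from 100 µM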
# Calb FLC – C. albicans growth inhibition with fluconazole, primary screen, CaCi-2 strain, Alamar Blue fluorescence | growth inhibition, % (no concentration beside the values) | C. albicans CaCi-2 (fluconazole-resistant clinical isolate) + fluconazole, 48 h | 300,000 compounds, 0.57% hits | AID 1979, 2009;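 active = most replicates above 75%; inconclusive = exactly half above 75%; inactive = most below 75%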;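 also: all wells also contain fluconazole at 8 µg/ml as a sub-toxic cotreatment; 0% = median of DMSO wells and 100% = median of geldanamycin control wells; wells of about 8 µL received 7.5 nL stock; the first replicate is given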
# A1 inh – caspase 3/7 activation in MEF A1-2A-BIM cells, primary screen, A1 inhibitor project, cell-based, luminescence, HTS; caspase activation, % (no concentration beside the values); Caspase-Glo 3/7 luminescence, 3 h; percent of clofoctol response, vehicle zero; AID 2462, 2010; 330,000 compounds, 0.066% hits;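 active = over half of replicate activation scores above 10%, or exactly half above 10 with the replicate mean above 10; inconclusive = replicate mean below 10 yet half the replicates above 10; inactive = over half of replicates below 10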;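 also: wells of about 30 µL received 50 nL stock; many hits fall short of the cut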
# * hit, by the source's call; ? = inconclusive; . = no result given; & = joins results of further samples.
SMILES,LANA-H2B inh,T cruzi repl,RanGTP-Imp inh,AF4-AF9 inh,Beta cell apopt,Vif TR-FRET,Calb FLC,A1 inh
Cn1c(N)c(S(=O)(=O)N2CCN(c3ccccc3Cl)CC2)c(=O)n(C)c1=O,-2.1,47,26*,-0.2,-2,2%,-21,0.5
CC(=O)c1c(C)[nH]c(C(=O)COc2cc(C)cc(C)c2)c1C,3.2,50,0.3,.,12,3%,6,-0.5
CCc1ccc(OCC(=O)NC(C)(C)C)cc1,0.4,-4,0.6,.,-10,.,?,-0.3
CCCn1c2ccccc2c2cnn(CC(=O)NCCCN3CCCC(C)C3)c(=O)c21 (stereo not drawn),-1.3,-2,-1.9,1.7,3,.,-3,-0.4
COc1cc(/C=C2\C(=N)N3N=C(S(C)(=O)=O)SC3=NC2=O)cc(OC)c1OCCOc1ccc(C)cc1,-3.6,-1,1.9,5.4,4,-5%,8,-0.7
CCOc1ccc(OCC)c(NC(=O)CN2CCN(c3cccc(C)c3)CC2)c1,1.5,39,-1.8,.,11,23%,-2,0.7
CC(C)(C)CC(=O)Nc1cc2c3c(c1)CC(=O)N3CCC2,-7.0,-12,1.5,-3.4,-4,-5%,-1,0.0
O=C(N/N=C/c1ccc(O)cc1)c1[nH]c2ccc(Br)cc2c1-c1ccccc1,0.9,6,0.4,0.5,10,.,14,2.4
Cc1c(N=NC2=C(O)CCCC2=O)c(=O)n(-c2ccccc2)n1C,-6.9,-4,-1.9,-6.7,-2,.,-4,-0.2
CCC1(CC)NC(=O)N(CC(=O)Nc2ccc(OCc3ccccc3)cc2)C1=O,0.8,.,.,-0.1,7,-2%,.,-0.3
O=C(NCCO)C(=O)c1c(-c2ccc(Cl)cc2)cc2ccccn12,-4.5,-8,4.7,-1.3,4,.,-3,0.4
COc1ccc(-c2cc(C)no2)cc1S(=O)(=O)N1CCOc2ccc(C)cc21,2.2,-6,-1.2,-2.3,-2,.,-7,0.7
Cc1nn(-c2ccccc2)nc1C(=O)OCC(=O)N1CCCCC1C (stereo not drawn),-0.8,.,.,0.5,4,.,.,2.2
COCCNC(=O)c1c(N)n(-c2ccccc2)c2nc3ccccc3nc12,0.2,-10,90*,.,-4,1%,11,-1.2
CCc1ccc(OCC(=O)Nc2ccc(S(=O)(=O)N3CCCC3)cc2)c(Br)c1,3.2,-17,0.6,.,-8,16%,0,0.2
CC(=O)N1N=C(c2cccs2)CC1c1ccco1 (stereo not drawn),4.3,-8,1.4,2.3,-3,10%,0,1.6
Cc1ccc(/C=C(\C#N)C(=O)N2CCCC2)c(C)c1,0.2,-1,0.6,1.3,-5,-3%,-13,0.7
CCOC(=O)C1(CCOc2ccccc2)CCN(Cc2ccccc2O)CC1,-0.9,29,0.8,-0.4,8,1%,-5,0.2
O=C(/C=C/c1cccc([N+](=O)[O-])c1)Nn1c(-c2ccccc2F)nc2ccccc2c1=O,2.1,5,-0.8,-3.7,-1,.,-38,-0.5
COc1ccc(C(=O)Nc2ccc(NC(=O)c3cnccn3)cn2)cc1,2.5,2,5.3,10,-2,2%,-1,-0.8
COc1cccc(N(C(=O)Cn2nnc3ccccc32)C(C(=O)NCc2ccco2)c2cccnc2)c1 (stereo not drawn),.,2,1.1,.,.,9%&27%,11,.
COc1ccc(CNC(=O)COC(=O)c2ccccn2)cc1,8.5,10,-1.4,-3.2,-5,8%,-4,1.3
CCN=C1SC(C(=O)Nc2ccc(Cl)c(Cl)c2)CC(=O)N1CC (stereo not drawn),3.2,-1,6.3,.,-1,-2%,-3,-0.6
COc1ccc(CCNC(=O)c2cc(C(=O)c3cc(Cl)ccc3O)cn(CCc3ccc(OC)cc3)c2=O)cc1,4.7,?,0.8,.,25,.,1,0.3
NC(=S)Nc1cnc2ccccc2c1,-9.6,3,-0.5,.,-6,1%,-14,0.4
CCN(CC)S(=O)(=O)c1ccc2c(c1)c(=O)c(C(=O)NCCOC)cn2C,2.1,-11,2.4,.,4,0%,-6,0.8
CCNc1nc(NC(C)C)nc(NS(=O)(=O)c2ccc(Cl)cc2)n1,0.5,6,-0.1,.,-1,0%,-2,-0.3
COc1ccc(Cl)cc1C(=O)NNC(=S)NC1CCCCC1,1.2,4,1.3,1.8,17,-1%,-8,0.6
O=C(CCC(=O)N1CCN(S(=O)(=O)c2ccc3ccccc3c2)CC1)Nc1cc(Cl)cc(Cl)c1,2.3,46,?,-13,0,21%,-13,-0.2
Cc1coc(C)c1C(=O)CC1(O)C(=O)N(CCc2ccccc2)c2ccccc21 (stereo not drawn),-0.7,3,7.2,.,-4,14%,-5,0.4
c1ccc(CN2CCCC3(CCCN(Cc4nc(COc5ccccc5)no4)C3)C2)cc1 (stereo not drawn),3.2,61*,1.1,.,0,6%,-35,0.6
Cc1ccc(OCC(=O)Nc2ccc3c(c2)C(=O)N(CCC(=O)O)C3=O)cc1,-1.5,-15,0.6,-1.4,-3,.,-3,-0.4
O=C(N/N=C(\c1ccccc1)c1cccnc1)c1cccc(F)c1,1.8,26,0.2,5.2,108*,.,-5,0.9
COc1ccc2c(c1)c(=O)c(C(=O)O)c(-c1ccc3c(c1)OCO3)n2C,-1.7,-16,1.4,-4.2,1,1%,0,0.2
Cn1c(=O)c2cn(Cc3ccc(Cl)cc3)cc2n(C)c1=O,-2.1,-10,0.6,.,-10,8%,19,0.5
COc1ccc(CNC(=O)CSc2ncnc3nc[nH]c23)cc1,0.5,-11,1.5,.,-4,-2%,7,1.6
COCCn1c(COc2ccc(Cl)cc2)nnc1SCC(N)=O,-6.4,-2,-3.0,6.2,-5,?,0,1.3
Cc1cc(C(=O)NC(C)C2CCCO2)no1 (stereo not drawn),-0.6,-9,1.2,0.1,-2,.,-4,-0.4
O=C(Cn1nnc(N2CCCC2)n1)N/N=C/c1ccc(Cl)cc1,9.8,-8,-0.4,1.8,-11,7%,1,1.6
C/C(=N\Nc1ccc(C)c(Cl)c1)c1cccnc1,-3.6,3,0.7,0.6,-2,2%,-6,0.0
c1ccc2c(c1)nnn2Cc1nnc2sc(-c3ccc4c(c3)OCCO4)nn12,0.9,9,0.7,.,3,-36%,7,0.1
Cc1cc(OCCCn2ccnc2)ccc1[N+](=O)[O-],4.4,23,3.4,3.9,2,-2%,-19,0.8
Cc1ccc(NC(=O)C2CCC(CNC(=O)[C@@H]3Cc4ccccc4CN3)CC2)c(C)c1 (stereo partly drawn),-4.3,3,4.2,-2.2,-8,.,-17,0.1
c1ccc(CNc2nc(N3CCN(Cc4ccccc4)CC3)nc3ccccc23)cc1,-9.5,24,3.5,8.0,23,5%,-1,0.2
O=S(=O)(c1ccc(Br)cc1)N1CCCc2ccccc21,-6.9,12,0.6,-3.5,-2,-3%,15,-0.1
CC(=O)Nc1ccccc1NC(=O)c1ccc(C)c(C)c1,18,-12,-3.0,-8.6,-5,.,2,-0.2
O=C1NC(=S)N/C1=C/c1cccc([N+](=O)[O-])c1O,-5.1,-1,-2.0,.,0,8%,-24,-0.2
Cc1ccc(CNC(=O)COC(=O)C2CC2)cc1,0.1,.,.,1.9,-4,.,.,0.3
Cc1cc(NC(=O)COC(=O)Cn2[nH]c(=O)c3ccccc3c2=O)c([N+](=O)[O-])cc1C,5.3,.,.,-2.2,3,-10%,.,0.6
CS(=O)(=O)N1CCN(c2ccc([N+](=O)[O-])c(NCCN3CCOCC3)c2)CC1,5.3,13,-2.1,.,4,2%,-13,-0.4

# With a hit mark in RanGTP-Imp inh (from the list above):
compound	LANA-H2B inh	RanGTP-Imp inh	AF4-AF9 inh	Vif TR-FRET	A1 inh
Cn1c(N)c(S(=O)(=O)N2CCN(c3ccccc3Cl)CC2)c(=O)n(C)c1=O	-2.1	26*	-0.2	2%	0.5
COCCNC(=O)c1c(N)n(-c2ccccc2)c2nc3ccccc3nc12	0.2	90*	.	1%	-1.2

# The list continues:
SMILES,LANA-H2B inh,T cruzi repl,RanGTP-Imp inh,AF4-AF9 inh,Beta cell apopt,Vif TR-FRET,Calb FLC,A1 inh
Cc1cc(NC(=O)CSc2nnc(C(F)(F)F)n2C)no1,-0.2,.,.,1.4,-5,.,.,0.0
O=C(CN1C(=O)NC2(CCOc3ccccc32)C1=O)NCCc1ccccc1 (stereo not drawn),4.4,.,.,-0.3,0,.,.,0.1
C=CCN(CC=C)c1cnn(-c2nc3ccccc3[nH]2)c(=O)c1Cl,-10,29,-4.1,.,8,-9%,-1,-7.6
CC(NC(=O)NCC1CCCO1)(C(F)(F)F)C(F)(F)F (stereo not drawn),-0.3,-13,2.8,.,2,3%,14,-0.6
CC(C)(C)OC(=O)C1C(=O)CC(C)(O)C(C(=O)OC(C)(C)C)C1c1ccco1 (stereo not drawn),0.5,8,-4.0,.,-5,-5%,-18,-1.2
CCOc1ccc(-c2nc(=S)[nH][nH]2)cc1,.,-24,-0.6,.,2,29%,-2,-0.8
O=C(CN1CCCCCC1)Nc1ccc(Cl)cn1,-1.9,-4,3.7,-2.7,-3,.,2,0.8
C=CCc1ccc(OCC(O)CN2CCN(c3ccccc3)CC2)c(OC)c1 (stereo not drawn),0.3,28,1.5,7.1,-6,-5%,-29,-0.8
Cc1coc2cc3oc(=O)c(CCC(=O)NCCCn4ccnc4)c(C)c3cc12,-3.6,-12,-1.2,2.0,0,.,1,-0.1
Cc1c(CCOC(=O)c2ccc(Cl)cc2Cl)sc[n+]1CC(=O)c1ccccc1,-7.5,.,.,9.1,-5,-6%,.,0.2
Nc1nc(SC2c3cccc4cccc(c34)C2NS(=O)(=O)c2ccccc2)n[nH]1 (stereo not drawn),-0.2,-2,5.0,.,-4,4%,21,2.5
O=C(COC(=O)c1ccc(Cl)c(S(=O)(=O)N2CCCCC2)c1)NCc1ccco1,-3.8,-10,4.0,-2.7,0,?,-29,0.1
Cc1nnsc1NC(=O)OCC(C)C,-2.9,-7,2.3,.,7,22%,-2,0.3
Cc1ccc2nc(N3CCN(C(=O)c4ccco4)CC3)sc2c1,0.3,-4,-2.4,4.8,-4,7%,-11,0.6
CCOCCc1nnc(NC(=O)C2CC(=O)N(CCc3ccc(F)cc3)C2)s1 (stereo not drawn),-4.8,-14,1.1,-1.2,7,.,-3,-0.5

# Among those listed so far, 2 contain a CF3 group.
SMILES,LANA-H2B inh,T cruzi repl,RanGTP-Imp inh,AF4-AF9 inh,Beta cell apopt,Vif TR-FRET,Calb FLC,A1 inh
Cc1cc(NC(=O)CSc2nnc(C(F)(F)F)n2C)no1,-0.2,.,.,1.4,-5,.,.,0.0
CC(NC(=O)NCC1CCCO1)(C(F)(F)F)C(F)(F)F (stereo not drawn),-0.3,-13,2.8,.,2,3%,14,-0.6
